A1 apoptosis 2 = A1 inhibitors via caspase activation, primary screen, cell-based, luminescence, HTS, two replicates; caspase activation, % (concentration not given with the values); MEF A1-2A-BIM cells, caspase-Glo luminescence, 3 h; percent of clofoctol response, DMSO zero; AID 2465, 2010; 24,000 tested, under 10 active; in the data active means caspase activation above about 5.9%;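 further: wells of about 30 µL received 50 nL stock; the first replicate is given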
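System: mouse embryonic fibroblasts co-expressing A1 and BIM (A1-2A-BIM), primed for A1 dependence; amount: 2500 cells/well; doses: 50 nL pinned compound; schedule: cells settled overnight, compound exposure 3 h at 37 °C, 5% CO2; detection: Caspase-Glo 3/7 luminescence, 1 h at room temperature; read-out: Caspase-3/7 activation, seen as rise in luminescence signal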
Numbers without * were called inactive. The list is partial; the hit share may differ from the screen's.

#	Structure	A1 apoptosis 2
1	CC(C)NC(=O)N(C)C[C@@H]1Oc2c(NS(=O)(=O)c3ccc(F)cc3)cccc2C(=O)N([C@H](C)CO)C[C@H]1C	-0.2
2	C[C@H]1CN([C@@H](C)CO)C(=O)Cc2cc(NC(=O)C3CC3)ccc2O[C@H]1CN(C)S(=O)(=O)c1ccc(Cl)cc1	0.9
3	CCO[C@@H]1OC(C(=O)NCc2nc3ccccc3[nH]2)=C[C@H](C)[C@H]1CCCO	-0.2
4	Cc1noc(C)c1S(=O)(=O)Nc1ccc2c(c1)CC(=O)N([C@H](C)CO)C[C@@H](C)[C@@H](CN(C)Cc1ccc(-c3ccccc3)cc1)O2	-1.9
5	C[C@@H]1CN([C@@H](C)CO)C(=O)Cc2cc(NC(=O)CCC(F)(F)F)ccc2O[C@@H]1CN(C)C(=O)NC1CCCCC1	0.3
6	C[C@@H]1CCCCO[C@@H](CN(C)CC2CC2)[C@H](C)CN([C@H](C)CO)C(=O)c2cc(NC(=O)Cc3ccccc3)ccc2O1	-0.8
7	C[C@@H]1CCCCO[C@H](CN(C)C(=O)CCC(F)(F)F)[C@@H](C)CN([C@@H](C)CO)C(=O)c2cc(N(C)C)ccc2O1	1.1
8	C[C@H]1CN([C@@H](C)CO)C(=O)Cc2cc(NS(=O)(=O)c3cccs3)ccc2O[C@H]1CN(C)C(=O)Nc1ccc2c(c1)OCO2	-0.2
9	C[C@H](CO)N1C[C@H](C)[C@@H](CN(C)Cc2ccc(Oc3ccccc3)cc2)OCc2cnnn2CCCC1=O	1.7
10	Cc1ccc(S(=O)(=O)Nc2ccc3c(c2)C(=O)N([C@@H](C)CO)C[C@@H](C)[C@@H](CN(C)Cc2ccc(Oc4ccccc4)cc2)O3)cc1	-0.2
11	Cc1noc(C)c1S(=O)(=O)N(C)C[C@H]1OCc2cn(nn2)CCCC(=O)N([C@H](C)CO)C[C@H]1C	-0.8
12	Cc1noc(C)c1NC(=O)Nc1ccc2c(c1)C(=O)N([C@H](C)CO)C[C@@H](C)[C@H](CN(C)C)OCCCC[C@@H](C)O2	-1.2
13	C[C@@H]1CN([C@H](C)CO)C(=O)Cc2cc(NC(=O)C3CC3)ccc2O[C@H]1CN(C)C(=O)Nc1ccc2c(c1)OCO2	-1.2
14	C[C@H]1CN([C@@H](C)CO)C(=O)Cc2cc(NC(=O)C3CC3)ccc2O[C@H]1CN(C)CC1CCCCC1	-0.3
15	C[C@@H]1CN([C@@H](C)CO)C(=O)Cc2cc(NC(=O)Cc3ccccc3)ccc2O[C@@H]1CN(C)Cc1ccc(C(F)(F)F)cc1	-0.5
16	COc1ccc(S(=O)(=O)N(C)C[C@@H]2Oc3c(NS(=O)(=O)c4cn(C)cn4)cccc3C(=O)N([C@H](C)CO)C[C@@H]2C)cc1	-0.4
17	COc1ccc(O)c(/C=N/NC(=O)c2cccc(C(=O)NO)c2)c1	-0.8
18	C[C@@H]1CN([C@@H](C)CO)C(=O)Cc2cc(NC(=O)Nc3cccc4ccccc34)ccc2O[C@H]1CN(C)S(=O)(=O)c1ccccc1	0.4
19	C[C@@H]1CN([C@@H](C)CO)C(=O)c2cc(NC(=O)C3CCCCC3)ccc2O[C@H]1CN(C)Cc1ccc2c(c1)OCO2	0.1
20	C[C@@H]1CCCCO[C@H](CN(C)S(=O)(=O)c2ccccc2)[C@@H](C)CN([C@@H](C)CO)C(=O)c2cc(NC(=O)Nc3ccc(C(F)(F)F)cc3)ccc2O1	0.8
21	C[C@@H]1CCCCO[C@@H](CN(C)CC2CCCCC2)[C@H](C)CN([C@H](C)CO)C(=O)c2cc(NS(C)(=O)=O)ccc2O1	-0.1
22	C[C@H](CO)N1C[C@H](C)[C@@H](CN(C)C(=O)Nc2ccc(F)cc2)Oc2ccc(NS(=O)(=O)c3ccccc3)cc2C1=O	-1.0
23	COc1ccc(NC(=O)Nc2cccc3c2O[C@H](CN(C)C)[C@H](C)CN([C@@H](C)CO)C3=O)cc1	-1.0
24	C[C@H](CO)N1C[C@H](C)[C@H](CN(C)C(=O)Nc2ccc3c(c2)OCO3)OCCCC[C@H](C)Oc2ccc(NC(=O)c3ccncc3)cc2C1=O	0.0
25	Cc1ccc(S(=O)(=O)Nc2ccc3c(c2)C(=O)N([C@@H](C)CO)C[C@@H](C)[C@H](CN(C)CC2CC2)O3)cc1	1.2
26	O=C(CCCCC(=O)N/N=C\c1ccc2ccccc2n1)NO	-0.6
27	C[C@H]1CN([C@@H](C)CO)C(=O)c2cccc(NC(=O)CCCCCC(=O)Nc3ccccc3N)c2O[C@@H]1CN(C)S(=O)(=O)c1ccc(Cl)cc1	0.1
28	CC(C)NC(=O)N(C)C[C@@H]1Oc2ccc(NS(=O)(=O)c3ccccc3)cc2CC(=O)N([C@@H](C)CO)C[C@H]1C	2.0
29	C[C@@H]1CN([C@@H](C)CO)C(=O)c2cccc(NS(=O)(=O)c3cccs3)c2O[C@H]1CN(C)Cc1ccc(C(=O)Nc2ccccc2N)cc1	-1.4
30	CC(C)NC(=O)Nc1ccc2c(c1)C(=O)N([C@H](C)CO)C[C@@H](C)[C@@H](CN(C)S(=O)(=O)c1ccccc1)O2	0.1

Reprinted at random: three records from the list, in no set order.
#	Structure	A1 apoptosis 2
30	CC(C)NC(=O)Nc1ccc2c(c1)C(=O)N([C@H](C)CO)C[C@@H](C)[C@@H](CN(C)S(=O)(=O)c1ccccc1)O2	0.1
22	C[C@H](CO)N1C[C@H](C)[C@@H](CN(C)C(=O)Nc2ccc(F)cc2)Oc2ccc(NS(=O)(=O)c3ccccc3)cc2C1=O	-1.0
12	Cc1noc(C)c1NC(=O)Nc1ccc2c(c1)C(=O)N([C@H](C)CO)C[C@@H](C)[C@H](CN(C)C)OCCCC[C@@H](C)O2	-1.2

The list goes on:
#	Structure	A1 apoptosis 2
31	C[C@@H]1CN([C@H](C)CO)C(=O)c2cc(NC(=O)Nc3ccc(C(F)(F)F)cc3)ccc2O[C@@H]1CN(C)Cc1ccc(Cl)c(Cl)c1	-0.3
32	CNC[C@H]1OCCCC[C@H](C)Oc2ccc(NC(=O)Nc3c(C)noc3C)cc2C(=O)N([C@@H](C)CO)C[C@H]1C	-0.3
33	C[C@@H]1CN([C@H](C)CO)C(=O)c2cc(NC(=O)c3ccncc3)ccc2O[C@@H](C)CCCCO[C@@H]1CN(C)C(=O)Nc1cccc2ccccc12	-1.0
34	CC(C)NC(=O)N(C)C[C@@H]1OCCCC[C@H](C)Oc2ccc(NC(=O)CCC(F)(F)F)cc2C(=O)N([C@@H](C)CO)C[C@H]1C	0.2
35	Cc1cc(C(=O)Nc2cccc3c2O[C@@H](CN(C)Cc2ccc(C(=O)Nc4ccccc4N)cc2)[C@H](C)CN([C@H](C)CO)C3=O)n(C)n1	0.4
36	COc1ccc(CN(C)C[C@H]2Oc3c(NS(=O)(=O)c4ccc(Cl)cc4)cccc3C(=O)N([C@@H](C)CO)C[C@H]2C)cc1	1.4
37	Cc1ccccc1CN(C)C[C@@H]1OCc2cnnn2CCCC(=O)N([C@@H](C)CO)C[C@H]1C	-0.4
38	C[C@H]1CN([C@@H](C)CO)C(=O)Cc2cc(N(C)C)ccc2O[C@H]1CN(C)Cc1ccc2c(c1)OCO2	-0.6
39	CC(C)NC(=O)Nc1cccc2c1O[C@H](CN(C)C(=O)Nc1ccc3c(c1)OCO3)[C@H](C)CN([C@@H](C)CO)C2=O	1.4
40	C[C@H](CO)N1C[C@H](C)[C@H](CN(C)C(=O)Nc2ccc(F)cc2)OCCCC[C@H](C)Oc2ccc(NC(=O)CCCN(C)C)cc2C1=O	-0.3
41	Cc1ccc(S(=O)(=O)Nc2ccc3c(c2)C(=O)N([C@H](C)CO)C[C@H](C)[C@H](CN(C)C(=O)Nc2ccc(C(F)(F)F)cc2)OCCCC[C@@H](C)O3)cc1	-1.0
42	COc1ccc(S(=O)(=O)N(C)C[C@H]2Oc3c(NS(=O)(=O)c4ccccc4)cccc3C(=O)N([C@@H](C)CO)C[C@@H]2C)cc1	-0.3
43	C[C@@H]1CN([C@H](C)CO)C(=O)CCCn2cc(nn2)CO[C@@H]1CN(C)Cc1ccncc1	1.6
44	C[C@@H]1CN([C@H](C)CO)C(=O)CCCn2cc(nn2)CO[C@H]1CN(C)Cc1ccccc1C(=O)O	1.5
45	CC(C)NC(=O)Nc1ccc2c(c1)C(=O)N([C@@H](C)CO)C[C@@H](C)[C@@H](CN(C)C)OCCCC[C@H](C)O2	0.7
46	C[C@@H]1CN([C@@H](C)CO)C(=O)c2cccc(NS(=O)(=O)c3ccc(F)cc3)c2O[C@@H]1CN(C)C(=O)NC1CCCCC1	1.0
47	COc1ccc(CN(C)C[C@@H]2Oc3ccc(NS(=O)(=O)c4ccc(OC)cc4)cc3C(=O)N([C@H](C)CO)C[C@@H]2C)cc1	0.5
48	COc1ccc(S(=O)(=O)Nc2cccc3c2O[C@H](CN(C)Cc2ccc(C(F)(F)F)cc2)[C@@H](C)CN([C@H](C)CO)C3=O)cc1	-0.6
49	C[C@@H]1CN([C@@H](C)CO)C(=O)c2cc(NC(=O)c3ccncc3)ccc2O[C@@H](C)CCCCO[C@H]1CN(C)Cc1ccc2c(c1)OCO2	0.6
50	Cc1noc(C)c1NC(=O)N(C)C[C@@H]1Oc2ccc(NS(C)(=O)=O)cc2C(=O)N([C@@H](C)CO)C[C@@H]1C	-0.7
51	COc1ccc(S(=O)(=O)Nc2ccc3c(c2)C(=O)N([C@H](C)CO)C[C@@H](C)[C@@H](CN(C)Cc2ccccc2)OCCCC[C@H](C)O3)cc1	-1.4
52	C[C@H](CO)N1C[C@H](C)[C@H](CN(C)Cc2ccc(-c3ccccc3)cc2)Oc2ccc(NC(=O)NC3CCCCC3)cc2C1=O	-6.5
53	C[C@@H]1CCCCO[C@@H](CN(C)Cc2ccncc2)[C@H](C)CN([C@@H](C)CO)C(=O)c2cc(NC(=O)c3ccncc3)ccc2O1	0.6
54	C[C@@H]1CN([C@@H](C)CO)C(=O)c2cc(NS(=O)(=O)c3ccccc3)ccc2O[C@@H](C)CCCCO[C@@H]1CN(C)C(=O)Nc1cccc2ccccc12	-1.6
55	C[C@H]1CN([C@@H](C)CO)C(=O)Cc2cc(NC(=O)C3CC3)ccc2O[C@@H]1CN(C)S(=O)(=O)c1ccccc1	-0.8
56	C[C@H]1CCCCO[C@@H](CN(C)Cc2ccc(C(=O)O)cc2)[C@@H](C)CN([C@@H](C)CO)C(=O)c2cc(NC(=O)Nc3ccc(C(F)(F)F)cc3)ccc2O1	0.0
57	C[C@@H]1CN([C@H](C)CO)C(=O)c2cc(NC(=O)Nc3ccc4c(c3)OCO4)ccc2O[C@H]1CN(C)C(=O)Nc1ccc2c(c1)OCO2	-0.7
58	CC(C)NC(=O)N(C)C[C@H]1Oc2c(NS(=O)(=O)c3ccccc3)cccc2C(=O)N([C@H](C)CO)C[C@@H]1C	1.2
59	Cc1noc(C)c1S(=O)(=O)Nc1ccc2c(c1)CC(=O)N([C@@H](C)CO)C[C@@H](C)[C@@H](CN(C)Cc1ccc(-c3ccccc3)cc1)O2	0.1
60	Cc1ccc(S(=O)(=O)N(C)C[C@@H]2OCCCC[C@@H](C)Oc3ccc(NS(=O)(=O)c4ccccc4)cc3C(=O)N([C@H](C)CO)C[C@@H]2C)cc1	0.0

Reprinted: entries 48–49
#	Structure	A1 apoptosis 2
48	COc1ccc(S(=O)(=O)Nc2cccc3c2O[C@H](CN(C)Cc2ccc(C(F)(F)F)cc2)[C@@H](C)CN([C@H](C)CO)C3=O)cc1	-0.6
49	C[C@@H]1CN([C@@H](C)CO)C(=O)c2cc(NC(=O)c3ccncc3)ccc2O[C@@H](C)CCCCO[C@H]1CN(C)Cc1ccc2c(c1)OCO2	0.6

Remaining list, next part
#	Structure	A1 apoptosis 2
61	CC(C)NC(=O)Nc1ccc2c(c1)C(=O)N([C@@H](C)CO)C[C@H](C)[C@H](CN(C)S(=O)(=O)c1ccc(Cl)cc1)OCCCC[C@@H](C)O2	-0.6
62	C[C@H](CO)N1C[C@H](C)[C@H](CN(C)S(=O)(=O)c2ccccc2)Oc2c(NC(=O)Nc3ccc(F)cc3)cccc2C1=O	0.3
63	C[C@@H]1CN([C@@H](C)CO)C(=O)c2cc(NS(=O)(=O)c3cn(C)cn3)ccc2O[C@@H]1CN(C)S(=O)(=O)c1ccccc1	-0.8
64	C[C@@H]1CN([C@@H](C)CO)C(=O)c2cc(NC(=O)c3ccncc3)ccc2O[C@@H](C)CCCCO[C@H]1CN(C)Cc1ccncc1	-1.6
65	C[C@@H]1CN([C@@H](C)CO)C(=O)Cc2cc(NS(=O)(=O)c3cccs3)ccc2O[C@@H]1CN(C)Cc1ccc(C(=O)Nc2ccccc2N)cc1	-0.1
66	C[C@@H]1CCCCO[C@H](CN(C)C(=O)CCCN(C)C)[C@@H](C)CN([C@@H](C)CO)C(=O)c2cc(NC(=O)NC3CCCCC3)ccc2O1	0.8
67	C[C@H]1CN([C@@H](C)CO)C(=O)Cc2cc(NC(=O)CCCCCC(=O)Nc3ccccc3N)ccc2O[C@@H]1CN(C)Cc1ccc(C(F)(F)F)cc1	0.3
68	C[C@@H]1CN([C@@H](C)CO)C(=O)c2cccc(NC(=O)Nc3ccc(F)cc3)c2O[C@H]1CN(C)C	-0.4
69	C[C@H](CO)N1C[C@H](C)[C@H](CN(C)S(=O)(=O)c2ccc(F)cc2)Oc2ccc(NC(=O)Nc3cccc4ccccc34)cc2CC1=O	0.3
70	C[C@H](CO)N1C[C@H](C)[C@H](CN(C)S(=O)(=O)c2ccc(C#N)cc2)Oc2ncc(C#Cc3ccc(C(F)(F)F)cc3)cc2C1=O	1.1
71	Cc1ccsc1/C=N/NC(=O)c1ccccn1	-9.4
72	C[C@@H]1CN([C@@H](C)CO)C(=O)c2cccc(NS(=O)(=O)c3cccs3)c2O[C@@H]1CN(C)S(=O)(=O)c1ccc(Cl)cc1	-0.5

Look-ups from the entries so far:
compound 26 – A1 apoptosis 2 = -0.6
compound 12 – A1 apoptosis 2 = -1.2

Bioassay records: PubChem, Broad Institute
